YopH inh: inhibitors of Yersinia enterocolitica YopH tyrosine phosphatase; fluorescence Ex485/Em525; inhibition, %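 (about 10 µM by stock and volumes)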; 0.16% of 140,000 active; AID 898;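 active = inhibition of 50% or more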;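 also: controls were vehicle for no effect and minimum signal wells for full effect; inactives centre near -20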
Mtb betalactam: beta-lactam sensitization of Mtb H37Rv | M. tuberculosis H37Rv growth with meropenem, percent inhibition; hits of this screen are not shown here | inhibition, % at 25 µM | 0.27% of 330,000 active | AID 434955;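 active = about 74% or more and at least 40 points above the plate without the antibiotic, then above 30% in a dose series; inconclusive = first-round hits that could not be retested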;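 also: growth measured after seven days incubation then overnight dye step; 0% = bacteria only wells and 100% = bacteria with antibiotic; twin plates without the antibiotic show which effects depend on it; some results filed as inactive read as strong as hits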
Mtb growth: M. tuberculosis H37Rv growth inhibitors, H37Rv strain (AID 1626) | M. tuberculosis H37Rv growth inhibition; higher % means a stronger effect | inhibition, % at 10 µM; hits with a dose series show IC50 in µM | 0.95% of 220,000 active;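 active = confirmed in a dose series; inconclusive = inhibition above 80% but not taken into the dose series; inactive = below 80% or under 30% at every dose of the series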;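 also: bacteria incubated seven days before Alamar blue readout; 0% = bacteria only wells and 100% = bacteria with antibiotic wells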
Arbovirus inh: arbovirus infection inhibition; inhibition, % at 10 µM; 0.37% of 200,000 active; arbovirus infection cell-based antiviral screen;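 active = inhibition from about 30%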;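 also: bluetongue infection of BSR cells; cell survival read as ATP light after 72 h; 0% = infected wells without compound and 100% = uninfected wells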
RecA splice inh: blocks M. tuberculosis RecA intein splicing | 0.75% of 290,000 active | inhibition, %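 (about 9 µM by stock and volumes)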 | P9WHJ3 | cell-free RecA intein splicing, fluorescence; in the data active = inhibition above about 30%; inconclusive = no clear call, values can overlap the other calls;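 also: 0% = vehicle wells and 100% = reference inhibitor control wells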
Target sequence (P9WHJ3 whole entry, looked up, canonical isoform): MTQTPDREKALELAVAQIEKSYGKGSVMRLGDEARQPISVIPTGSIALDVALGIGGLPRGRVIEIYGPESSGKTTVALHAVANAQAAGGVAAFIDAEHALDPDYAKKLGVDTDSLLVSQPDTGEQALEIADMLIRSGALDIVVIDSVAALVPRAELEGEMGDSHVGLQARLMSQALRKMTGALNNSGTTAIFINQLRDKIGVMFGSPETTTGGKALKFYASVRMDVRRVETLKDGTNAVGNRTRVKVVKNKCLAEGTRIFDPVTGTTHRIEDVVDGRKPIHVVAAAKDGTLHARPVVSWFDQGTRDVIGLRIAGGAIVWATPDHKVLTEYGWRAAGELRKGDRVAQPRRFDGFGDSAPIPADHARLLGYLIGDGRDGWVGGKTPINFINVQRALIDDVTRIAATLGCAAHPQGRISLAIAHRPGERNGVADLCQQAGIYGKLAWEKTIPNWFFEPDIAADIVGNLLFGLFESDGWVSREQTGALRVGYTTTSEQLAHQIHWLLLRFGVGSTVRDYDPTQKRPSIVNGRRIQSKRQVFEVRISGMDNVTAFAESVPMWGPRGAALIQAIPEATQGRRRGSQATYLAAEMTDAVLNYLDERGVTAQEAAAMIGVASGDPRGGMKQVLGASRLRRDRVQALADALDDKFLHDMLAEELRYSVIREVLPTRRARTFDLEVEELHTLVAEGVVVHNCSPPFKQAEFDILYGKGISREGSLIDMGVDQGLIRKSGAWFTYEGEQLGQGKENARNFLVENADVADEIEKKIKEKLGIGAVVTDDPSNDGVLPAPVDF
Arbovirus inh repeat: recorded beside Arbovirus inh, whose call it bears; inhibition, %; measured here: 10K subset replicate screen; many hits read low in the repeat;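 first of two repeat runs on a subset; 0% = infected and 100% = uninfected wells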
* marks the source's active call; other numbers are inactive results; ? = inconclusive; . = no result given. An excerpt, so the mix of outcomes need not match the whole.

SMILES	YopH inh	Mtb betalactam	Mtb growth	Arbovirus inh	RecA splice inh	others
NC(N)=NCCCC(NC(=O)c1ccccc1)C(=O)Nc1ccc([N+](=O)[O-])cc1 (stereo unspecified)	.	5	.	.	0.0
CS(=O)(=O)Nc1ccc(C2=NN(S(=O)(=O)c3ccc(F)cc3)C(c3ccco3)C2)cc1 (stereo unspecified)	.	-2	2%	8	2.3
O=C(OCc1ccc(Br)cc1)c1cccc(S(=O)(=O)N2CCCC2)c1	.	3	.	.	8.5
Cc1c(Nc2nc3ccccc3nc2NS(=O)(=O)c2cccs2)c(=O)n(-c2ccccc2)n1C	-31	-11	-9%	7	0.7
O=C(O)c1ccccc1C(=O)c1ccc(Cl)cc1	.	-6	-7%	.	-1.1
CCCN(CCC(=O)Nc1cc(OC)cc(OC)c1)CC1CC1	-34	-12	-4%	8	0.7
O=C(/C=C/Nc1ccc(Oc2ccccc2)cc1)c1ccco1	.	0	?	-12	-3.9
CC(=O)c1sc(NC(=O)C(C)(C)C)nc1C	-29	-13	-9%	1	1.2
COc1cc(CNc2nc(C)c([N+](=O)[O-])c(C)c2C#N)cc(OC)c1OC	-16	8	-6%	6	0.6
CSc1nccc(-c2cc(Cl)sc2Cl)n1	8	39	8%	-4	2.4
COc1ccc(CC(=O)Nc2c(C(=O)N3CCN(c4ncccn4)CC3)oc3ccccc23)cc1OC	.	3	.	.	-1.3
CCCN(CCO)C1CCN(CCc2ccccc2)CC1	.	4	.	.	1.4
COc1ccc(Br)cc1CNC(=O)CN1C(=O)C(c2ccccc2)Oc2cccnc21 (stereo unspecified)	.	0	.	.	0.4
CCC(Sc1ccc2nnc(CCNS(=O)(=O)c3ccc(OC)cc3)n2n1)C(=O)OC (stereo unspecified)	.	-6	4%	0	3.3
COc1ccc(-c2csc(N(CCCN(C)C)C(=O)c3ccc(F)cc3)n2)cc1	.	-2	.	.	-0.7
CCOC(=O)c1c(-c2cccs2)csc1NC(=O)c1ccncc1	-38	-4	-6%	-2	-3.0
Cc1cccc(C(=O)OCc2cncs2)c1	.	4	2%	1	1.9
CN(C(=O)COc1ccc2c(-c3ccccc3)cc(=O)oc2c1)C1CCS(=O)(=O)C1 (stereo unspecified)	.	0	.	.	-1.6
COc1ccc(OC)c(/C=C/C(=O)c2ccc(Cl)cc2)c1	-47	99	?	-35	.
CCOc1cccc(C(=O)NC(c2ccccc2)C(C)C)c1 (stereo unspecified)	.	0	0%	0	-1.3
COc1cc2oc(=O)ccc2c(OC)c1CC(O)C(C)(C)O (stereo unspecified)	.	-9	-2%	.	-2.8
CCCNC(=O)c1c(NC(=O)C2COc3ccccc3O2)sc2c1CCCC2 (stereo unspecified)	12	36	6%	-6	-0.1
Cc1ccc(NS(=O)(=O)c2c(C)[nH]c(=O)[nH]c2=O)c(C)c1	.	5	.	.	-0.2
CC1(O)CC(c2ccc(Cl)cc2)=NN1C(=O)c1ccc([N+](=O)[O-])cc1 (stereo unspecified)	.	1	70%	-26	.
Clc1ccc(/C=C\c2nccc3c2[nH]c2ccccc23)cc1	.	.	12%	1	-9.4
CCc1nccn1CCC(=O)N1CCCC(Nc2ccc(C(C)C)cc2)C1 (stereo unspecified)	.	-9	.	.	-0.4
c1ccc2c(OCCCCN3CCOCC3)cccc2c1	.	3	.	.	0.1
COc1ccccc1Nc1nc(-c2sc(NC(=O)c3ccco3)nc2C)cs1	-9	22	-6%	-1	4.3
CC(C)(CNC(=O)CC1C(=O)NCCN1Cc1cccc(F)c1F)N1CCOCC1 (stereo unspecified)	.	3	.	.	-0.9
CC(Oc1ccc(Cl)cc1)C(=O)Nc1nccs1 (stereo unspecified)	-28	-1	69%	4	2.1	Arbovirus inh repeat=0
COc1ccc(CNC(=O)CNC(=O)c2sc3ccccc3c2Cl)cc1OC	.	0	.	.	0.9
CCCCNC(=O)Nc1ccnn1C1CCCCC1	-34	-2	-5%	11	-0.7	Arbovirus inh repeat=1
COc1ccc(CNCc2ccc(C)cc2)c(OC)c1	.	-11	.	.	1.2
c1ccc(CSc2nnc(-c3ccccn3)n2-c2ccccc2)cc1	-10	2	4%	-1	4.9
Cc1ccccc1Nc1nnc(SCC(=O)Nc2ncc(C(F)(F)F)cc2Cl)s1	-31	0	1%	10	-3.7
COc1ccccc1NC(=S)NNC(=O)c1ccncc1	.	-1	?	6	-4.5
Oc1ccc2ccccc2c1CNn1cnnc1	-9	8	1%	5	-5.4
O=c1[nH]nc(-c2ccc(F)cc2)cc1-c1ccccc1	.	4	.	.	4.0
O=C(NN1C(=O)C2C3C=CC(C4CC34)C2C1=O)c1cccc(Br)c1 (stereo unspecified)	.	-10	3%	.	-0.6
O=C(NC(=S)N1C[C@H]2C[C@H](C1)c1cccc(=O)n1C2)c1ccc(F)cc1	.	0	.	.	-1.7
COc1cccc(-c2cc(C(=O)NC3CCCCC3)no2)c1	.	4	.	.	0.6
COc1ccccc1NC(=O)C1(c2ccccc2)CCCC1	.	52	18%	1	7.3
CCc1noc(C)c1C(=O)Nc1nc2c(C)cc(C)cc2s1	.	6	.	.	-3.0
CCCCn1cc2c(c1-c1cccc(C)c1)c(=O)n(C)c(=O)n2C	.	12	5%	.	2.8
O=C(CSc1ncnc2ccccc12)c1cccs1	.	-11	-5%	11	-3.2
Cc1ccc(Cc2c[nH]c(=S)s2)cc1	.	92	-6%	-9	0.4
CSc1nc(-c2ccco2)nn1S(C)(=O)=O	-36	4	-9%	-3	-0.6
CCOC(=O)N1CCC(n2c(SCC(=O)NCCC3=CCCCC3)nc3ccccc3c2=O)CC1	-35	-12	2%	-19	2.6
O=[N+]([O-])c1ccc(Nc2ccccc2O)c2nonc12	.	95	.	.	1.6
CCn1ncc(C2=NOC(C(=O)Nc3ccc(C)cc3)C2)c1C (stereo unspecified)	-22	-13	-1%	7	4.3

More entries:
SMILES	YopH inh	Mtb betalactam	Mtb growth	Arbovirus inh	RecA splice inh	others
O=C(N/N=C/c1cc2c(cc1Br)OCO2)c1cccnc1	.	-3	1%	-1	-0.7
Cc1cccc(-n2c(O)c(C=NC3CCS(=O)(=O)C3)c3ccccc3c2=O)c1 (stereo unspecified)	11	5	-4%	0	-1.1
NC(=O)COc1ccc(/C=N/NC(=O)C2CCCN2S(=O)(=O)c2ccc(Cl)cc2)cc1 (stereo unspecified)	2	-20	5%	-2	-1.0
CCCCn1c(-c2ccc([N+](=O)[O-])cc2)n[nH]c1=S	-29	-6	6%	10	-1.3
O=C(CSc1ncnc2c1cnn2-c1ccc(F)cc1)NCC1CCCO1 (stereo unspecified)	.	-12	.	.	-1.3
Clc1cccc(C2CCN(Cc3nc(COc4ccccc4)no3)C2)c1 (stereo unspecified)	.	3	-3%	-8	9.1
Cc1ccc(C(=O)COC(=O)c2cnccn2)cc1C	.	-12	0%	8	0.5
O=C(O)c1cccc(NS(=O)(=O)c2ccc(Oc3ccc(S(=O)(=O)Nc4cccc(C(=O)O)c4)cc3)cc2)c1	.	-14	.	.	1.7
N#CCOc1coc(CN2CCN(c3ccccc3)CC2)cc1=O	.	-3	.	.	0.4
O=C(Nc1cccc(-c2cccc(Cl)c2)c1)C1CCN(Cc2ccccn2)CC1	.	52	.	.	3.9
O=C(CCn1c(=O)c2sccc2n(CC(=O)NCc2ccco2)c1=O)NCc1ccccc1	-34	-14	2%	9	0.3
CCCOc1ccc(C(C)=O)cc1Cc1c(O)nc(SC)[nH]c1=O	.	-2	.	.	0.5
CSc1ccccc1NC(=O)CNCCCN1CCOCC1	.	-8	-13%	.	-3.2
CCOC(=O)c1[nH]c(Cc2[nH]c(C(=O)OCC)c(C)c2CCC(=O)OC)c(CCC(=O)OC)c1C	-27	6	-1%	4	1.3
CCCn1c(=O)c(C(=O)NNC(=O)c2ccccc2Cl)c(O)c2ccccc21	.	2	.	.	2.2
COc1cc(OC)c2ccc(=O)oc2c1C(CCN1CCN(c2ccccc2)CC1)c1ccc(N(C)C)cc1 (stereo unspecified)	.	-6	-5%	.	1.8
COc1ccc(N2CCN(C(=O)COc3ncnc4ccccc34)CC2)cc1	.	4	7%	6	-4.2
COC(=O)c1ccc(SCC(=O)NCc2ccccc2)c([N+](=O)[O-])c1	.	2	.	.	-2.0
COc1cccc(-c2nc(CS(=O)CC(=O)NC3CCCCC3)c(C)o2)c1 (stereo unspecified)	.	2	.	.	-3.3
CN(C(=O)c1ccccn1)c1nnc(-c2cnccn2)s1	-38	2	-16%	-1	-3.7
CC12COC3(C(=O)Nc4ccc(Cl)cn4)CC1CCC32C (stereo unspecified)	-12	-2	0%	-3	2.0	Arbovirus inh repeat=2
Cc1ccc(-n2ccnc(SCC(=O)NC3CCCC3)c2=O)cc1Cl	.	-9	.	.	0.0
CN1CCN(NC(=O)c2cccc(C(F)(F)F)c2)CC1	.	5	-1%	.	1.6
Cc1cc(C)cc(N(CC(=O)N2CCN(c3ccccc3)CC2)S(=O)(=O)c2c(C)noc2C)c1	-41	5	2%	22	.	Arbovirus inh repeat=-4
CSc1nc(C)cc(OCCO)n1	-7	3	-2%	5	1.1
COc1cccc(C(=O)NC2CCSC2=O)c1 (stereo unspecified)	-26	-1	-9%	0	-0.3
O=S(=O)(c1ccccc1)N1CCN=C1SCc1ccccc1	.	5	-7%	0	5.3
Cc1ccc2nc(-c3ccc(NC(=O)C4CCCO4)cc3)[nH]c2c1 (stereo unspecified)	1	16	0%	-22	0.6
CCc1ccccc1N(C(=O)c1snc(C(N)=O)c1N)C(C(=O)NCC1CCCO1)c1ccc(C)o1 (stereo unspecified)	.	3	.	.	2.0
CCn1c(SCC(=O)NCC(=O)Nc2ccc(F)cc2)nnc1-c1cccs1	-37	-1	-1%	-2	-1.4

A portion taken from the entries so far, for reference:
SMILES	YopH inh	Mtb betalactam	Mtb growth	Arbovirus inh	RecA splice inh	others
COc1ccc(N2CCN(C(=O)COc3ncnc4ccccc34)CC2)cc1	.	4	7%	6	-4.2
COC(=O)c1ccc(SCC(=O)NCc2ccccc2)c([N+](=O)[O-])c1	.	2	.	.	-2.0
COc1cccc(-c2nc(CS(=O)CC(=O)NC3CCCCC3)c(C)o2)c1 (stereo unspecified)	.	2	.	.	-3.3
CN(C(=O)c1ccccn1)c1nnc(-c2cnccn2)s1	-38	2	-16%	-1	-3.7
CC12COC3(C(=O)Nc4ccc(Cl)cn4)CC1CCC32C (stereo unspecified)	-12	-2	0%	-3	2.0	Arbovirus inh repeat=2
Cc1ccc(-n2ccnc(SCC(=O)NC3CCCC3)c2=O)cc1Cl	.	-9	.	.	0.0
CN1CCN(NC(=O)c2cccc(C(F)(F)F)c2)CC1	.	5	-1%	.	1.6
Cc1cc(C)cc(N(CC(=O)N2CCN(c3ccccc3)CC2)S(=O)(=O)c2c(C)noc2C)c1	-41	5	2%	22	.	Arbovirus inh repeat=-4
CSc1nc(C)cc(OCCO)n1	-7	3	-2%	5	1.1
COc1cccc(C(=O)NC2CCSC2=O)c1 (stereo unspecified)	-26	-1	-9%	0	-0.3
O=S(=O)(c1ccccc1)N1CCN=C1SCc1ccccc1	.	5	-7%	0	5.3
Cc1ccc2nc(-c3ccc(NC(=O)C4CCCO4)cc3)[nH]c2c1 (stereo unspecified)	1	16	0%	-22	0.6

Going on with the list:
SMILES	YopH inh	Mtb betalactam	Mtb growth	Arbovirus inh	RecA splice inh	others
Cc1ccc(NC(=O)COC(=O)/C(=C/c2cccs2)c2cccs2)cc1S(=O)(=O)N(C)C	-30	8	6%	12	22
C=CCn1c(N)cc(=O)nc1SCC(=O)N(c1ccccc1)c1ccccc1	.	9	-2%	2	-2.4
COc1ccc(OC)c(NC2c3ncccc3C(=O)N2Cc2ccco2)c1 (stereo unspecified)	-34	8	4%	10	1.1
O=C(Nc1nc2c(s1)CCCC2)c1nn(Cc2ccccc2)c(=O)c2ccccc12	-29	-4	-2%	-5	1.7
O=C(CNC(=O)c1ccc2c(c1)OCCO2)N/N=C/c1ccco1	.	-1	-6%	.	1.3
CCS(=O)(=O)NCc1cn2c(C)csc2n1	-39	-6	-1%	3	3.1
COC(=O)COC(=O)c1ccc(-n2nnnc2SC)cc1	-6	13	0%	12	-0.1
Cc1ccc(CNC(=O)C2CCN(C(=O)c3cccc(Cl)c3)CC2)cc1	.	?	.	.	0.8
COC(=O)C1=CNC=C(C(=O)OC)C1c1cccc2ccccc12	.	1	.	.	-13
CCN(CC)CCNC(=O)NC1CCCCC1	-9	-16	3%	1	-1.6
CC(C)c1onc(C(=O)NC2CCCCC2)c1[N+](=O)[O-]	.	-4	7%	15	-3.1

Source: PubChem
